Bioassay records (PubChem)
VACV Venus inh – inhibitors of vaccinia virus (Venus reporter); AID 720580; Potency, µM (highest dose often 36.5 µM), for the others: at the highest dose activity change, negative = inhibition, actives largely listed as inhibitors; Vaccinia virus Venus reporter expression, fluorescence; 330,000 tested, 0.46% active; active means well fitted inhibition curve with a large enough effect; inconclusive means small, poorly fitted or top-dose-only effect; inactive means no such curve, though single readings can be large or run the other way; tested in A549 cells; note: nearly all actives have a fitted effect of over 30% in size; inactives centre near -10
Vaccinia mCherry – inhibitors of vaccinia virus infection (mCherry reporter signal) | Vaccinia virus mCherry reporter infection, fluorescence; about a quarter of the inactives have no number | Potency, µM (top dose mostly 36.5 µM), inactives show top-dose activity change, negative = inhibition, usual class: inhibitors | 310,000 tested, 0.63% active | AID 720579; active = well fitted inhibition curve with a large enough effect; inconclusive = small, poorly fitted or top-dose-only effect; inactive = no such curve, though single readings can be large or run the other way; tested in A549 cells; note: nearly all actives have a fitted effect of over 35% in size; inactives centre near -10
Starred values were filed as active, the others as inactive; i = inactive; ? = inconclusive; . = no result given; & = joins results of further samples; [ ] = remark or other dose. % is set by controls: 0 for no effect and ±100 for the full control effect; potency is the fitted concentration of half-maximal effect.

The line under a structure holds: VACV Venus inh	Vaccinia mCherry
CCOC(=O)C1CCCN(C(=O)Cn2cnc3sc(C)c(S(=O)(=O)N4CCOCC4)c3c2=O)C1 (stereo not drawn)
  -15%	i
Cc1c(NS(=O)(=O)c2ccc3c(c2)Cc2ccccc2-3)c(=O)n(-c2ccccc2)n1C
  -5%	-17%
CCCNC(=O)C1(C)CCN(Cc2ccc(C)c3ccccc23)C1 (stereo not drawn)
  10%	11%
COCCNc1ccc(-c2nc(-c3ccccn3)no2)cc1[N+](=O)[O-]
  5%	-2%
CCOC(=O)C1(C)CCN1C(=O)c1cccc2ccccc12 (stereo not drawn)
  -2%	5%
CCN(CC)CCCNC(=O)c1ccc2c(c1)N(Cc1c(F)cccc1Cl)C(=O)c1ccccc1S2
  ?	-5%
COc1ccc(Cc2c(-c3cccc(Br)c3)nc3ccc(Cl)cn23)c(C)c1
  -15%	-12%
O=c1c2ccccc2cnn1Cc1ccc(Cl)c(Cl)c1
  -7%	-1%
FC(F)(F)c1ccc(-c2nnc(-c3ccccn3)c(-c3ccccn3)n2)nc1
  -7%	-12%
CCCN1CCN(CCCNC(=O)c2cnn(-c3ccc(C)cc3)c2-n2cccc2)CC1
  -2%	-8%
CC12CCC(=O)C=C1CCC1C2C(=O)CC2(C)C1CCC2(O)C(=O)CO (stereo not drawn)
  -15%	-20%
O=S(=O)(NCCn1cccc1)c1ccc2ccccc2c1
  -13%	?
CC(=O)N1CCN(S(=O)(=O)c2cccc(C(=O)Nc3ccc(C)cn3)c2)CC1
  -24%	-6%
COc1ccc(Nc2nc3cc(-c4ccsc4)sc3c(=O)n2C)cc1OC
  ?	?
COC(=O)C1=C(c2ccc(F)cc2OCc2ccccc2)C[C@@H]2CC[C@H]1N2C(=O)NC1CCCCC1
  ?	-8%
NC(=O)N/N=C/c1ccc(N2CCOCC2)s1
  -15%	-15%
C=C1CC2C3CC[C@@]4(OCOC45COCO5)[C@@]3(C)C(O)CC2[C@@]2(C)CCC(=O)C=C12 (stereo partly drawn)
  -19%	?
Cc1cccc(NC(=O)CN2C(=O)C(c3ccc(F)cc3)=NC23CCCCCC3)c1C
  -22%	-20%
CCCCOCCCNC(=O)C[C@@H]1C[C@@]2(C(=O)OC)CCCCC=C2N(Cc2ccco2)C1=O
  -11%	i
COc1ccc(OCC(=O)NNC(=O)c2ccccc2OCc2c(C)noc2C)cc1
  -3%	i
CCc1nnc(NC(=O)CCC(=O)N2CCC(Cc3ccccc3)CC2)s1
  -16%	-1%
O=C(Cc1ccccc1[N+](=O)[O-])Nc1nccs1
  -4%	?
CCOC(=O)Cc1csc(NC(=O)C(NC(=O)C2CCCCC2)C(C)C)n1 (stereo not drawn)
  2%	-13%
CCn1c(N)c(C(=O)Nc2ccccc2C(=O)OC)sc1=S
  -11%	i
O=c1cc(-c2ccc([N+](=O)[O-])cc2)c2cc3c(cc2[nH]1)OCCO3
  ?	?
Cc1cc(=O)[nH]c(SCC(=O)N2CCCc3ccccc32)n1
  -6%	-16%
Cc1ccc(NC(=O)C2CCN(c3nc4ccccc4[nH]3)CC2)cc1Cl
  -18%	i
CCOC(=O)c1c(OCC)[nH]c2ccc(O)cc12
  -15%	-24%
COCCN(Cc1cc2cc3c(cc2nc1Cl)OCO3)C(=O)Nc1ccc(F)cc1
  -25%	-10%
CNC(=O)C1Cc2c(-c3ccccc3Oc3ccccc3)ccnc2O1 (stereo not drawn)
  -11%	14%

Part of the list above in order of length of the SMILES, highest first.
The line under a structure holds: VACV Venus inh	Vaccinia mCherry
CCOC(=O)C1CCCN(C(=O)Cn2cnc3sc(C)c(S(=O)(=O)N4CCOCC4)c3c2=O)C1 (stereo not drawn)
  -15%	i
CCOC(=O)C1(C)CCN1C(=O)c1cccc2ccccc12 (stereo not drawn)
  -2%	5%
NC(=O)N/N=C/c1ccc(N2CCOCC2)s1
  -15%	-15%

(next part)
The line under a structure holds: VACV Venus inh	Vaccinia mCherry
CCOC(=O)C1=CN(Cc2cccc(F)c2)S(=O)(=O)NC1c1ccc(Br)cc1F (stereo not drawn)
  -20%	-2%
COc1ccc(NC(=O)CC2C(=O)N(C)C(=S)N2CCc2ccccc2)cc1 (stereo not drawn)
  -25%	?
Cc1ccc(NC(=O)C(OC(=O)c2ccc(NC(N)=O)cc2)c2ccccc2)cc1Cl (stereo not drawn)
  -3%	-11%
CCOc1ccc(Nc2ncnc3c2cnn3C)cc1
  0%	-11%
Cc1cn2c(-c3ccc(Cl)cc3)nnc2s1
  -12%	-8%
COc1ccccc1-c1cc(C(=O)N2CCN(c3ccccc3OC)CC2)no1
  -25%	-14%
Cc1ccc(NC(=O)c2nc[nH]c2C(=O)N2CCCCC2)c(C(=O)c2ccccc2)c1
  ?	.
CS(=O)(=O)N(Cc1ccccc1)c1ccc(C(=O)NCCSc2ccccn2)cc1
  -9%	-5%
O=[N+]([O-])c1cccc(/C=N/Nc2cc(Cl)nc(-c3ccccc3)n2)c1
  -14%	.
CS(=O)(=O)Nc1ccc(C(=O)Nc2ccc(S(=O)(=O)N3CCCC3)cc2)cc1
  5%	i
Cc1nn(CC(=O)NCC(C)c2ccccc2)c(=O)c2cc3occc3n12 (stereo not drawn)
  -4%	-14%
Cc1ccc(N(CC(=O)N2CCc3ccccc32)S(=O)(=O)c2cccs2)cc1
  -17%	-28%
Cc1cc(C)c(C(=O)NCc2nc(-c3cccc(NC(=O)C4CCCN(C)C4)c3)oc2C)[nH]1 (stereo not drawn)
  -8%	-15%
O=C1/C(=C\c2ccco2)NC(=S)N1c1ccccc1
  7%	i
O=C(NNC(=O)C1CC=CCC1)c1ccccc1Cl (stereo not drawn)
  -11%	i
Cc1ccc2c(C)cc[n+](CCCS(=O)(=O)[O-])c2c1
  -12%	-12%
CCCCn1c(C)c(C(=O)O)c2cc(OC)c3ccccc3c21
  -12%	-1%
COC(=O)C1=C(c2ccc(-c3ccccc3)c(F)c2)C[C@@H]2CC[C@H]1N2C(=O)NCC1CC1
  ?	-29%
COc1ccccc1NC(=O)CSC1=NC(=O)C(Cc2ccccc2)C(=O)N1 (stereo not drawn)
  -6%	i
CCCC[C@H]1C2=C3[C@@H](CC(C(=O)OC)=C[C@@H](C(=O)OC)[C@H]3C(C)(C)C2=O)n2c(=O)n(-c3ccccc3)c(=O)n21
  -1%	i
C[n+]1c(-c2ccccc2)sc([S-])c1-c1ccccc1
  2%[7.34 µM]	-15%[7.34 µM]
CC(C)Nc1ncnc2c1ncn2[C@H]1CN(Cc2ccco2)C[C@@H](CO)O1
  1%	5%
O=C1C(=Cc2ccco2)CCCC1=Cc1ccco1
  -1%	i
CC(=O)c1ccc(OCC(O)CN(C)CCOc2ccc(Br)cc2)cc1 (stereo not drawn)
  -11%	-9%
CCOC(=O)N1CCN(C(=O)CN(c2cccc(Cl)c2C)S(=O)(=O)c2ccc(C)cc2)CC1
  -19%	i
Fc1ccc(COc2ccc(/C=N/n3cnnc3)cc2)cc1
  -11%	-18%
Cc1ccccc1-c1nsc(SCC(=O)NCc2ccc3c(c2)OCO3)n1
  -15%	-1%
CCN(CC)C(=O)Oc1ccc2c(=O)c(-c3ccc(OC)cc3)c(C)oc2c1
  -29%	-12%
NC(=S)NN=C1C2CC3CC(C2)CC1C3
  ?	?
N#CCN1CCN(c2ccc(C(F)(F)F)cc2)CC1
  -1%	i
O=S(=O)(CCNCCc1ccccc1)NCc1ccccc1
  -19%	-6%
CCCCCCN1CCN(C2CN(C3CCCCC3)S(=O)(=O)C2)CC1 (stereo not drawn)
  -14%	i
CC(C)C(CO)N1CCN(Cc2ccccc2)CCC1=O (stereo not drawn)
  -4%	-22%
Cc1c(C(=O)N/N=C/c2ccc(N(C)C)cc2)[nH]c2ccc(Cl)cc12
  -8%	-16%
O=C(Nc1ccc(S(=O)(=O)N2CCCC2)cc1)c1cccc(OC(F)F)c1
  -21%	-22%
CCc1nc2c(OCCOc3ccc(F)cc3)cccn2c1N(C)C(=O)c1ccccc1F
  -14%	4%
CCOC(=O)c1cc(S(=O)(=O)N2CCN(C(=O)OCC)CC2)cn1C
  -7%	.
COc1cc(C2CC(=O)Nc3cc4c(cc32)OCCO4)cc(Br)c1OC (stereo not drawn)
  -30%[7.34 µM]	?
[O-][n+]1c2ccccc2cc2ccccc21
  16%	-7%
Cc1nn(CC(=O)N(CC(C)C)C2CCS(=O)(=O)C2)c(C)c1[N+](=O)[O-] (stereo not drawn)
  -9%	0%
CCOC(=O)c1c(NC(=S)NC)sc2c1CC(C)(C)SC2
  4%	i
CC(=O)Nc1ccc(S(=O)(=O)NCCC(=O)OCC(=O)c2ccccc2)cc1
  -8%	-14%
O=C(CCCN1C(=O)c2ccccc2C1=O)Nc1nnc(C2CC2)s1
  -9%	-16%
Cc1noc(C)c1CSc1nc2ccccc2c(=O)n1-c1ccccc1
  -22%	.
Cc1n[nH]c(=S)n(/N=C/c2cccs2)c1=O
  -9%[7.34 µM]	-4%[7.34 µM]
CN(Cc1ccccc1)C(=O)COC(=O)c1ccccc1Nc1ccccc1
  -2%	-6%
CCc1ccc(OC2(C)CCN(Cc3ccc(SC)cc3)C2)cc1 (stereo not drawn)
  -9%	i
COc1ccc(NC(=O)NC(C)c2ccncc2)cc1OC (stereo not drawn)
  -14%	i
CCCCN1C(=O)c2[nH]nc(-c3ccccc3O)c2C1c1ccc(OCc2ccccc2)c(OC)c1 (stereo not drawn)
  -18%	-24%
CCn1cc(S(=O)(=O)Nc2ccccc2C(F)(F)F)cn1
  -6%	1%
Cc1cc2c(cc1S(=O)(=O)CCC(=O)N(C)Cc1ccccc1)OCC(=O)N2
  -17%&10%	5%
CCOc1ccc2nc3cc(N=Nc4ccc(N)nc4N)ccc3c(N)c2c1
  -5%	-1%
CC(=O)Oc1ccc2oc(=O)c3c(c2c1)CCCN3C(=O)CN1CCN(c2ncccn2)CC1
  -24%	.
Cn1c(SCC(=O)O)nnc1-c1ccc(NC(=O)c2ccc(Cl)c(Cl)c2)cc1
  -17%	i
CCOC(=O)c1[nH]c2ccccc2c1NC(=O)c1ccc(Br)cc1
  -7%	-22%
NC(=O)C1CCN(C2CC(=O)N(c3ccc(F)c(Cl)c3)C2=O)CC1 (stereo not drawn)
  -8%	-11%
O=C(Nc1ccc2c(c1)CCC2)c1ccc(F)c(S(=O)(=O)N2CCOCC2)c1
  -20%	i
COc1ccc(-c2cnc3c(c2)C(=O)N([C@H](C)CO)C[C@@H](C)[C@@H](CN(C)C(=O)NC2CCCC2)O3)cc1
  -12%	-4%
COc1ccc(-c2nc3sc(CCNC(=O)c4cc(Cl)ccc4OC)c(C)n3n2)cc1
  -7%	-1%
Cc1cccc(C(=O)Nc2ccc(C(=O)OCc3cc(=O)n4nc(C5CC5)sc4n3)cc2)c1
  ?	?

(next part)
The line under a structure holds: VACV Venus inh	Vaccinia mCherry
Cn1nc(C(F)(F)F)c(-c2ccc(Br)cc2)c1NC(=O)CSCC(=O)O
  -29%	-9%
CN(C(=O)c1ccc(NC(=O)Cc2ccc(NC(=O)C3CCCN(C(=O)C4CCCCC4)C3)cc2)cc1)C1CCCC1 (stereo not drawn)
  -7%	-2%
Nc1nnc(SCC(=O)Nc2cccc3ccccc23)s1
  1%	?
CC(=O)c1ccc(N2CCN(CC(O)COC(c3ccccc3)c3ccccc3)CC2)cc1 (stereo not drawn)
  -21%	-11%
Cc1c(C)n(Cc2ccccc2)c2ccc(C(=O)OCCCN(C)C)cc12
  -20%	-8%
Cc1cccc(C)c1NC(=O)C1c2ccccc2Oc2ccccc21
  -3%	-8%
CCc1cc(=O)oc2cc(C)cc(O)c12
  -5%	i
CC(=O)c1cc2c(cc1NC(=O)c1cnc(C)cn1)OCO2
  -17%	-13%
O=S1(=O)CCN(CCc2ccccc2)CC1
  -3%	-16%
C/C(N)=C(/C#N)C(=O)CSc1nnc(COc2ccccc2Cl)o1
  ?	7.9µM*
Cc1cc(N2CCN(C)CC2)nc2ccc(NC(=O)Nc3ccc(Cl)cc3)cc12
  -6%	-12%
Cc1ccccc1Nc1nc(N)nc(CSCC(=O)Nc2cccc(Br)c2)n1
  -16%	i
CCOc1ccccc1NC(=O)c1ccc(S(=O)(=O)N2CCCCC2)cc1
  -15%	-11%
CC1(Cc2ccc(S(C)(=O)=O)cc2)C(=O)Nc2ccc(Cl)cc21 (stereo not drawn)
  -10%	47%[activator]
N#Cc1c(-c2cccs2)cc(-c2ccccn2)nc1N
  ?	.
CCOc1ccc(C(=O)Nc2cc(-c3nc4cc(OC)ccc4o3)ccc2C)cc1[N+](=O)[O-]
  -12%	-8%
CCC(C)(C)NC(=O)Nc1cc(Cl)ccc1OC
  -28%	i
CCN(CC)CC(=O)Nc1ccc(C)cc1Br
  -17%	.
Cc1ccc(S(=O)(=O)N2CCC(C(=O)OCc3c(C)noc3C)CC2)cc1C
  -10%	i
Cc1csc(NC(=O)C2CCCN(S(=O)(=O)c3ccc(Br)s3)C2)n1 (stereo not drawn)
  -12%	.
CC1=C(C(=O)OC2CCCC2)C(c2ccccc2Cl)CC(=O)N1 (stereo not drawn)
  -6%[7.34 µM]	-10%[7.34 µM]

A run of entries taken from the entries so far, as a working copy:
The line under a structure holds: VACV Venus inh	Vaccinia mCherry
Cn1nc(C(F)(F)F)c(-c2ccc(Br)cc2)c1NC(=O)CSCC(=O)O
  -29%	-9%
CN(C(=O)c1ccc(NC(=O)Cc2ccc(NC(=O)C3CCCN(C(=O)C4CCCCC4)C3)cc2)cc1)C1CCCC1 (stereo not drawn)
  -7%	-2%
Nc1nnc(SCC(=O)Nc2cccc3ccccc23)s1
  1%	?
